High-throughput results: PubChem, National Center for Advancing Translational Sciences (NCATS)
Menin-MLL FL inh = displaces fluorescein MLL peptide from human menin | 290,000 tested, under 10 active | Fluorescence polarization, fluorescein-MLL peptide displacement from menin | FP activity change, % at 61.4 µM; inconclusive = falling polarisation curve, or a change in total fluorescence; inactive = total fluorescence flat and polarisation flat or rising; no compound was filed as active; the % refers to the polarisation; negative = inhibition;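 also: % of control where 0% means no effect; inhibitors lower the polarisation; unlabelled MLL peptide was the positive control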
gsp agonist = agonists of gsp mutant (McCune-Albright syndrome). gsp mutant cells, cAMP HTRF, 30 min; control for the full effect not named in the record. Potency, µM (doses to about 76.9 µM), without a hit: at the highest dose activation (cAMP increase), hits mostly activators. hit rate 0.13% among 340,000. AID 624287; active = well fitted activation curve with a large enough effect; inconclusive = small, poorly fitted or top-dose-only effect, or another doubt; inactive = no such curve, though single readings can be large or run the other way; cell line not stated here;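 also: phosphodiesterase inhibitor Ro 20-1724 added with compounds to block cAMP breakdown; potency is read from the fitted curve at half-maximal effect; nearly all actives have a fitted effect of over 60% in size; about a fifth of the inactives were tested at one dose only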
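Cells in DMEM/10% FBS with G418 were pretreated with compounds in DMSO plus […] (300 uM stock) for 30 min at 37C. cAMP was measured by HTRF (cAMP-d2 plus anti-cAMP antibody-K) after 30 min at room temperature.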
PINK1 modulator = PINK1 expression modulation | PINK1 immunofluorescence, high-content cytometry, 24 h | Potency, µM (top dose mostly 76.6 µM), inactives show at the highest dose activation (PINK1 increase), usual class: activators | hit rate 0.2% among 410,000 | AID 624263; active = well fitted activation curve with a large enough effect; inconclusive = small, poorly fitted or top-dose-only effect; inactive = flat fitted curve, though single readings scatter; cell line not stated here;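 also: potency is read from the fitted curve at half-maximal effect; % of control where 0% means no effect; nearly all actives have a fitted effect of over 65% in size; a mitochondrial uncoupler was the plate control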
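A stable cell line was treated with compounds at 5 concentrations for 24 hours, with CCCP as control. PINK1 levels and mitochondrial localization were measured by immunofluorescence with mitochondrial, cell and nuclear markers after fixation, read by laser-scanning cytometry.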
gsp antag = antagonists of gsp mutant (McCune-Albright syndrome) | Potency, µM (series often up to 76.9 µM), inactives show at the highest dose activity change, negative = inhibition, usual class: inhibitors | hit rate 0.4% among 340,000 | gsp-mutant cells, cAMP HTRF, 30 min; control for the full effect not named in the record; active = falling curve of any shape with a large fitted effect; inconclusive = falling curve, mostly with a smaller effect; inactive = flat or rising curve; cell line not stated here;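 also: intracellular cAMP measured with PDE inhibitor Ro 20-1724 present during compound exposure; potency is read from the fitted curve at half-maximal effect; % is scaled to controls: 0 for no effect and ±100 for the full control effect; nearly all actives have a fitted effect of over 65% in size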
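Measurement of cellular cAMP by homogeneous time-resolved fluorescence following a 30 min compound exposure at 37C. The PDE inhibitor […] was present throughout; the assay buffer was DPBS with 0.05% BSA and 0.005% Tween 20.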
Sfp PPTase inh = inhibitors of Bacillus subtilis Sfp phosphopantetheinyl transferase | AID 1490 | Biochemical Sfp PPTase activity, qHTS | Potency, µM, without a hit: max response, negative = inhibition, actives largely listed as inhibitors | hit rate 3.5% among 310,000 | Q9F4F7; active = well fitted inhibition curve with a large enough effect; inconclusive = small, poorly fitted or top-dose-only effect, or another doubt; inactive = no such curve, though single readings can be large or run the other way;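 also: the enzyme is Sfp with the accession as filed and its product quenches rhodamine fluorescence; potency is read from the fitted curve at half-maximal effect; 0% = enzyme reaction without inhibitor and -100% = no enzyme wells; top concentration of the series not given in the record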
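With Hepes-Na pH 7.6 buffer containing 10 mM MgCl2, Sfp (15 nM) modified BHQ-2-YbbR (12.5 uM) using rhodamine-CoA (5 uM). Two reads 30 minutes apart at 525/598 nm yielded each well's rate.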
D2 agonist = agonists of human D2 dopamine receptor (beta-arrestin) | DiscoveRx PathHunter D2 beta-arrestin, luminescence, 90 min; 100% = 57 uM dopamine signal | activation, % (concentration not given with the values) | hit rate 0.084% among 360,000; in the data active = activation above about 40%; inconclusive = about 15% to 40%; inactive = below about 15%; also: compound concentration not given in the record; the text of the record calls up to 30% inactive
Target sequence (P14416 whole entry, looked up): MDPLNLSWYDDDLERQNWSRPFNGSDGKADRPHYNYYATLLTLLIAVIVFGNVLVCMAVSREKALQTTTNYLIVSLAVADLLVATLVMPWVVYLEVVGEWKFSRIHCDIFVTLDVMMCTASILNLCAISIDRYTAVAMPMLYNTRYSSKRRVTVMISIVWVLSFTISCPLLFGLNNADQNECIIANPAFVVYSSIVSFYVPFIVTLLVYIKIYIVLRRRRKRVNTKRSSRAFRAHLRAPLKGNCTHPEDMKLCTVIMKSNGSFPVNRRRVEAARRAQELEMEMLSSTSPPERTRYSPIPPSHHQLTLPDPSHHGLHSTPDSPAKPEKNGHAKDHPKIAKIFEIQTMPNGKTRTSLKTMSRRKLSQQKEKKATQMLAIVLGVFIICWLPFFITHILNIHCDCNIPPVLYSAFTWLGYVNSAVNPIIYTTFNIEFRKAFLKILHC
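Agonist mode: compounds alone added to overnight-plated D2 PathHunter cells for 90 min at 37 C, with 57 uM final dopamine (EC100) defining full response. Beta-arrestin recruitment detected by chemiluminescent reagent, read after 1 h at ambient temperature.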
ClpP mod = qHTS Assay for Activators of ClpP | Potency, µM (titrated, usually from 57.5 µM), inactives show top-dose activity change, negative = active | purified B. subtilis ClpP, FRET peptide cleavage, 20 min | hit rate 1.9% among 340,000 | ATP-dependent Clp protease proteolytic subunit (Bacillus subtilis (strain 168)), P80244 | AID 651965, 2013; active = well fitted falling curve with a large enough effect; inconclusive = small, poorly fitted or top-dose-only effect; inactive = no such curve, though single readings can be large or run the other way; also: potency is read from the fitted curve at half-maximal effect; the source files actives as falling curves though it sought activators and does not explain the sign; nearly all actives have a fitted effect of over 65% in size; many hits overshoot -100%
Target sequence (P80244 whole entry, looked up): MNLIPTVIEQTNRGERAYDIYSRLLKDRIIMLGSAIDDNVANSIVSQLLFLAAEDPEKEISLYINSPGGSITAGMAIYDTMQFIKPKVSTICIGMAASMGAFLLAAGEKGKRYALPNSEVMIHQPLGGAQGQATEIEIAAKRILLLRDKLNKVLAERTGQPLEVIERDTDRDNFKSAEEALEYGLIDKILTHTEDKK
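ClpP 10 microg/mL final, pH 8 Tris/KCl buffer with BSA, glycerol, Tween-20; compound pinned in; FRET-FV substrate; RT 20 min; Ex320/Em430; ΔFRET vs ADEP 5.8 microM, DMSO, no enzyme.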
An asterisk follows results filed as active; u = inconclusive; x = no result given; & = joins results of further samples; [ ] = dose if it differs, or a comment.

SMILES | Menin-MLL FL inh | gsp agonist | PINK1 modulator | gsp antag | Sfp PPTase inh | D2 agonist | ClpP mod
O=S(=O)(NC1CCCCC1N1CCC(O)CC1)c1ccc(Cl)cc1 (centres undefined) | 13.2 | -20.4% | -2.3% | 11.1% | 10.1% | -4.1 | -1.1%
Cc1ccc(C=Nc2ccccc2C(N)=O)s1 | 1.8 | 2.8% | 3.8% | 12.1% | 4.4% | -0.9 | 8.91µM*
O=C1CC(N2CCOCC2)C(=O)N1c1ccc(Cl)cc1 (centres undefined) | 0.8 | 2.7% | -0.1% | -2.0% | 10.1% | -1.4 | 0.4%
Cc1cccc(N(C(=O)c2ccc(Cl)cc2)C2CS(=O)(=O)CC2OC(=O)c2ccc(Cl)cc2)c1 (centres undefined) | -1.5 | -13.7% | 3.2%[38.3 µM] | -8.9% | 19.1% | -3.8 | -3.1%
CCn1c(=O)c(C(=O)CN2CCN(S(=O)(=O)c3ccc(C)cc3C)CC2)c(N)n(Cc2ccccc2)c1=O | 0.0 | 13.8% | -2.3% | -7.1% | 14.6% | 0.3 | -3.4%
Cc1cc(S(=O)(=O)n2ccnc2)c(Cl)cc1Cl | -2.7 | 2.5%[15.4 µM] | 0.9% | 4.7% | 15.2% | -4.9 | x
CC(C)Oc1ccc(S(=O)(=O)N2CCOCC2)cc1NC(=O)c1ccc(N2CCCC2=O)cc1 | x | u | 17.1% | -6.8% | 14.1% | 0.0 | -1.3%
CN1C(=O)/C(=C/c2ccc(OCc3ccc(F)cc3)cc2)N(C)C1=S | -0.4 | 6.0% | 2.8% | 6.0% | 13.5% | -4.2 | -2.9%
O=C(NCCCN1CCCC1=O)c1cccc(Oc2ccccc2)c1 | 0.5 | 13.1% | -0.1% | -8.8% | 25.1% | 0.1 | -1.7%
CCOc1ccc(C(C)NC(=O)c2cccs2)cc1OCC (centres undefined) | x | -23.1% | -0.1% | 2.5% | x | 0.3 | -0.8%
COc1ccc(C(=O)NC(=S)Nc2ccc(CN3CCOCC3)cc2)cc1OC | 0.8 | 23.0% | 0.6% | -20.6% | 4.2% | -4.8 | 4.2%
CCc1ccc(NC(=O)c2cnccn2)cc1 | -1.9 | -36.8%[inhibitor] | -0.7% | 14.9% | 17.4% | -2.0 | x
CC12CCC(C(=O)Nc3cc(Cl)ccc3Cl)(C(Br)C1=O)C2(C)C (centres undefined) | -7.4 | 13.7% | 8.1% | 10.1% | -3.5% | 2.7 | -2.7%
CCOc1ccc(CNC(=O)Cn2c(=O)c3cccn3c3ccccc32)cc1 | -0.5 | u | 2.7%&7.1% | 4.0% | -23.8% | -4.4 | -2.9%&-18.7%
COC(=O)c1cccc(NC(=S)Nc2ccccc2Cl)c1 | 3.3 | 11.6%[15.4 µM] | 3.1% | -4.6% | -27.3% | -2.7 | -1.0%
COc1cccc(-c2coc3cc4oc(=O)c(CCC(=O)O)c(C)c4cc23)c1 | -7.7 | -3.2%[15.4 µM] | -1.1% | u | 3.1% | 0.6 | -0.1%
COc1cccc(CN2CCN(Cc3ccc4c(NC(C)=O)cccc4n3)CC2CCO)c1 (centres undefined) | -3.0 | 7.2%[15.4 µM] | 0.2% | 0.6% | -19.5% | -2.9 | x
COCc1n[nH]c(=S)n1-c1ccccc1 | 1.2 | u | 0.5% | 5.5% | -20.0% | -1.1 | -4.0%
Cc1ccccc1C1c2[nH]c3ccccc3c2C[C@H]2C(=O)N(c3ccccc3C(=O)NCCN3CCOCC3)C(=O)N12 (some centres undefined) | -1.1 | x | 0.3% | -8.6% | -4.1% | -3.7 | -10.8%
Cc1cc(C)c(NC(=S)N2CCC(N(C)CC3CCCO3)CC2)c(C)c1 (centres undefined) | 1.6 | 5.3% | 10.2%[38.3 µM] | 7.4% | 3.2% | -2.5 | -0.6%
CC(OC(=O)c1n[nH]c2ccccc12)C(=O)NC1CCCCC1C (centres undefined) | x | -22.3% | 3.7% | 2.1% | x | -4.4 | 4.4%
COc1cccc(NC(=O)c2cnsn2)c1 | -7.0 | 27.2% | x | 10.6% | 13.4% | -2.3 | -2.9%
CCOc1ccc(CC(=O)NCc2ccc3c(c2)cc(C)n3C)cc1 | -0.7 | -4.0% | 0.3% | -7.2% | 15.9% | 5.0 | -3.9%
C=C(C)COc1ccc(-c2nc(N)ncc2Oc2ccccc2OC)c(O)c1 | 2.6 | 9.1% | 1.6% | -5.8% | 7.0% | -3.5 | -1.4%
CCCCn1c(SCC(=O)NC2CC2)nnc1-c1ccncc1 | 14.7 | -1.6% | 0.5% | 11.2% | 15.5% | -0.1 | x
N#Cc1c(N)sc2c1CCCCCC2 | 3.2 | 9.3% | 3.7%[38.3 µM] | -1.6% | 39.8µM* | 3.4 | -2.1%
Cc1ccccc1CN1C(=O)C2(OCCCO2)c2ccccc21 | 1.3 | -5.6% | 8.2%[38.3 µM] | -21.9% | -2.4% | -2.5 | -0.2%
COc1ccc(NC2CCCN(C(=O)CCc3ccncc3)C2)cc1OC (centres undefined) | -13.8 | u | 0.5% | -6.4% | -0.8% | 3.2 | -0.7%
O=C(Nc1cccc(C(F)(F)F)c1)c1cccnc1N1CCN(c2ccccc2)CC1 | -8.7 | u | 2.9%[38.3 µM] | -10.1% | 22.4µM* | -3.9 | -5.4%
CCOC12NC(=O)CC(=O)N1C(c1ccccc1)=CS2 (centres undefined) | 6.6 | -12.4% | 4.3%[38.3 µM] | -21.9% | -10.2% | 1.5 | -0.5%
O=C(c1ccc(NS(=O)(=O)c2ccc3[nH]c(=O)[nH]c3c2)cc1)N1CCN(c2ccccc2O)CC1 | x | -18.2%[15.4 µM] | -0.5% | 4.3% | x | 1.7 | x
COCCNC(=O)c1nn2c(C(F)(F)F)cc(-c3ccccc3)nc2c1Br | x | 2.6% | 4.7% | x | x | -10.2 | 1.3%
COC(=O)/C(=C/Nc1cccc2ccccc12)[N+](=O)[O-] | 0.4 | -47.3% | -3.0%[38.3 µM] | 3.9% | u | -0.1 | 150.4%
O=C(NCc1ccc2c(c1)OCO2)Nc1ccc(Cl)cc1 | 2.9 | -29.0% | 6.0% | 5.6% | 7.3% | -4.6 | -1.1%
O=C(Nc1ccccn1)C1(c2ccccc2)CCCC1 | 0.1 | -2.3% | 5.5%[38.3 µM] | 0.4% | 7.8% | -1.7 | 2.4%
COc1ccc(N=Nc2cc(-c3ccccc3)ccc2O)cc1 | -1.8 | -3.9% | 3.7% | 5.4% | 1.5% | 1.1 | x
Cc1ccc(S(=O)(=O)N2CCN(Cc3ccsc3)CC2)cc1 | 3.4 | 17.7%[15.4 µM] | -1.5% | -9.8% | 4.8% | 4.2 | x
O=C(CSc1ncnc2c1nnn2Cc1ccccc1)NC1CCCCC1 | 2.8 | u | 6.8% | 17.0% | -2.6% | 2.8 | 1.1%
COc1cc(/C=N/NC(=O)c2cccnc2)ccc1OCC(=O)Nc1ccccc1Cl | -2.1 | 13.9% | -0.5% | 9.3% | 9.7% | -6.6 | -21.7%
C=CCn1c(SCC(=O)c2[nH]c(C)c(C(=O)OCC)c2C)nc2scc(-c3ccc(OC)c(OC)c3)c2c1=O | -0.1 | 1.9% | 12.1% | u | -7.6% | -0.3 | 0.1%
Cc1nn(-c2nccs2)c2c1C(=O)CC(C)(C)C2Br (centres undefined) | x | x | 8.9% | 1.5% | x | 5.5 | -1.5%
CCOC(=O)c1ccc(N(CCC2CO2)S(=O)(=O)c2ccc(C)cc2)cc1 (centres undefined) | x | 22.0% | -4.4% | -1.0% | x | -2.6 | -9.8%
COc1cc(OC)c(C(=O)OC(C)C(=O)Nc2cccc(C(F)(F)F)c2)cc1OC (centres undefined) | 2.2 | -2.1% | 0.3% | -23.5% | 15.1% | -1.0 | -5.1%
C/C(=N\NS(=O)(=O)c1ccc(Br)cc1)c1ccc2c(c1)OCO2 | -3.7 | u | 2.6% | -2.5% | -10.1% | -4.8 | -2.2%
COc1ccc(S(=O)(=O)n2nc(OC(=O)c3ccco3)cc2N)cc1 | 4.2 | -4.2% | 0.8% | 18.3% | -15.9% | -1.3 | 3.2%
O=C(O)c1cccc(NC(=O)c2ccc3c(c2)C(=O)N(Cc2ccco2)C3=O)c1 | -0.7 | 13.1% | 0.3% | 3.8% | -28.1% | 3.8 | x
CC1CCN(C(=O)c2ccc(N(C)S(C)(=O)=O)cc2)CC1 | 1.6 | 23.7% | -4.2% | 13.9% | 13.8% | -3.7 | 0.7%
CCOC(=O)c1c(C)n(C)c2ccc(O)c(CN(C)C)c12 | 5.4 | -47.6%[inhibitor] | -1.8% | 10.7% | -19.1% | 4.9 | 2.4%
CCOn1c(=O)c(-c2ccccc2)[n+]([O-])c2ccccc21 | 7.2 | 22.6% | 1.8% | -7.8% | 7.8% | 6.9 | x
CCN(CC)c1ccc(NC(=O)c2ccccc2)cc1S(=O)(=O)Nc1ccccc1OC | x | -12.4% | 1.0% | -1.4% | 3.16µM* | 0.3 | -2.8%
CCOC(=O)CSc1nnc(-c2ccoc2C)n1-c1ccc(OCC)cc1 | 2.7 | -24.6% | 0.9% | -31.3% | 56.2µM* | -2.8 | -4.1%
COc1ccc(CC(NC(C)=O)C(=O)NC2CCN(S(=O)(=O)c3ccc(NC(C)=O)cc3)CC2)cc1 (centres undefined) | -9.1 | 15.0% | 1.1% | 6.4% | -1.2% | 6.5 | x
CC1(O)C(c2ccccc2)=Nc2ccccc21 (centres undefined) | x | -12.0% | -0.8% | x | x | -4.3 | -2.7%
COC(=O)c1ccc(C(=O)OC)c(NC(=O)CN(c2ccccc2)S(=O)(=O)N(C)C)c1 | -6.8 | -51.9%[inhibitor] | 0.9%&-1.1% | -26.2% | 1.7% | 9.0 | u
COc1ccc2oc(C(=O)OCC(=O)N(C)Cc3ccccc3)c(C)c2c1 | x | 3.3% | 0.0% | -12.2% | x | 1.8 | 28.2µM*
COc1ccc(C(C)C)cc1-c1cccc2nncn12 | x | x | -0.7% | x | x | -4.4 | 4.6%
Cc1cccc(-c2nnc(NC(=O)c3ccco3)s2)c1 | x | u | 0.7% | -6.3% | -5.3% | 3.7 | -6.7%
